RN4220 kill: kills Staphylococcus aureus RN4220; inhibition, % (concentration not given with the values); 330,000 tested, 0.33% active; S. aureus RN4220 growth, OD600, 16 h;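 active means z-score of -3 or lower and OD600 up to 0.18 on both plates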;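 further: plate controls were untreated cells for no effect and reference antibiotic for full effect; stock transfer was 100 nL into about 80 µL; one replicate is shown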
Mtb hypoxia rep: reduces hypoxia-regulated biosensor signal in M. tuberculosis; M. tuberculosis hypoxia-regulated fluorescent reporter, fluorescence; fluorescence inhibition, % (test concentration not listed); 300,000 tested, 0.1% active;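 active means 35 to 45% if threefold the growth effect, above 45% if 1.5-fold the growth effect; inactive means the rest, general growth blockers included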;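 further: wells of about 50 µL received 100 nL stock; 0% = vehicle wells and 100% = reference inhibitor wells; whole bacteria with a GFP reporter of the hypoxia response; strong numbers were not always called active; many hits fall short of the cut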
PrP 5UTR inh: suppresses PrP 5' UTR mRNA reporter expression; cell-based PrP 5' UTR mRNA reporter, plate reader; inhibition, % (concentration not given with the values); 340,000 tested, 0.35% active;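 active means every replicate at 50% or more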;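 further: 0 = median of the neutral control wells; tested in H4 reporter cells; numbers are from one replicate; inactives centre near -14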
Autofluor counter: compound fluorescence in toxin protease inhibitor counterscreen | compound autofluorescence counterscreen, microsphere flow cytometry; stronger effect = higher value | fluorescence intensity (no concentration beside the values) | 360,000 tested, 3.1% active | AID 624483;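 active means at least 3 SD above the mean of all compounds, about 16000 in these data; inconclusive means too few beads counted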;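 further: 100 nL of 1 mM stock went into each well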
Sa ugtP lethal: kills S. aureus RN4220 lacking UgtP; S. aureus RN4220 ugtP deletion, OD600 growth, 16 h; some inactives read as strong as hits; AID 1259309; growth inhibition, % (test concentration not listed); 330,000 tested, 0.54% active;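 active means z-score under -3 and OD600 up to 0.15 on both plates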;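 further: plate controls were untreated wells for no effect and antibiotic for full effect; wells of about 80 µL received 100 nL stock; the first replicate is given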
BJeLR lethal: BJeLR cell viability loss. 300,000 tested, 0.17% active. BJeLR (HRASV12) viability, CellTiter-Glo ATP luminescence, 48 h; reference of the scale not given here. inhibition, % (test concentration not listed);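 active means replicate mean above 50%; inconclusive means above 50% but judged a plate artefact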;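 further: 50 nL library stock added to about 25 µL; numbers are from one replicate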
Mtb hypoxia rep growth: second read-out of Mtb hypoxia rep, no call of its own (marks repeat the call); growth inhibition, %; measured here: M. tuberculosis growth (absorbance);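 0% = vehicle and 100% = reference antibiotic; read after six days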
Starred values were filed as active, the others as inactive; ? = inconclusive; . = not tested or not shown.

1	Oc1ccc(-n2cccc2C=Nn2cnnc2)cc1
2	NC(=S)NNc1cc(Cl)cc(Cl)c1
3	ClCCN(CCCl)c1ccc(-n2cnc3c(Cl)ncnc32)cc1
4	O=[N+]([O-])c1cc(C(F)(F)F)cc([N+](=O)[O-])c1NCc1cccnc1
5	CCOC(=O)c1c(CC(C)C)csc1N
6	CN1CCC(OC(=O)c2ccccc2Cl)CC1
7	Cn1c[n+](C)cc1C=NO
8	CCc1nc(SCC(=O)Nc2cc(C)on2)c2c(=O)n(C)c(=O)n(C)c2n1

| compound no. | 1 | 2 | 3 | 4 | 5 | 6 | 7 | 8 |
| --- | --- | --- | --- | --- | --- | --- | --- | --- |
| Mtb hypoxia rep growth | -13 | . | 11 | 10 | 1 | 5 | 8 | 9 |
| Mtb hypoxia rep | 0 | . | 16 | 12 | -6 | 4 | 20 | -3 |
| RN4220 kill | 2.7 | -5.4 | 5.4 | 24 | 2.0 | 0.6 | 1.1 | -0.1 |
| BJeLR lethal | . | 4 | . | -5 | 6 | 3 | . | -1 |
| Sa ugtP lethal | 2 | 2 | 0 | -2 | 0 | 11 | 1 | -5 |
| Autofluor counter | . | 3726 | 3956 | 1985 | 4440 | 2053 | . | 6088 |
| PrP 5UTR inh | . | -15 | -29 | -13 | -29 | -2 | . | -10 |

9	Cc1ccc(OCc2cc(C(=O)NC(C)Cc3cccnc3)no2)cc1C (stereo unspecified)
10	CCC(=O)Nc1ccc(NC(=O)CSc2nnc(-c3ccco3)n2CC)cc1
11	CC(C)CCC(C)NC(=O)Cc1ccc(S(=O)(=O)N2CCOCC2)s1 (stereo unspecified)
12	COc1cccc(CN2CCNC(=O)C2CC(=O)NCCc2ccccn2)c1 (stereo unspecified)
13	CCOc1ccc(Br)cc1C1=NN(C(C)=O)C(c2ccc([N+](=O)[O-])s2)O1 (stereo unspecified)
14	CNc1nc(C)nc(N/N=C/c2ccccc2)n1
15	COc1ccc(C)cc1NC(=O)NNC(=O)c1ccoc1C
16	O=C(CSc1nnc(-c2ccccc2Br)o1)N1CCOCC1

| compound no. | 9 | 10 | 11 | 12 | 13 | 14 | 15 | 16 |
| --- | --- | --- | --- | --- | --- | --- | --- | --- |
| Mtb hypoxia rep growth | 0 | 10 | -6 | 3 | 1 | . | 6 | -2 |
| Mtb hypoxia rep | -5 | 10 | 5 | 10 | -7 | . | 0 | 12 |
| RN4220 kill | 3.6 | 1.8 | -0.2 | 5.6 | 22 | . | -0.8 | 4.5 |
| BJeLR lethal | -12 | -15 | -15 | -5 | 19 | -9 | -21 | 1 |
| Sa ugtP lethal | 6 | 5 | 5 | 10 | 30 | . | -2 | 3 |
| Autofluor counter | 5846 | 3893 | 5537 | 4444 | 3831 | 4185 | 5762 | 5522 |
| PrP 5UTR inh | -60 | -28 | -23 | -27 | -9 | -24 | -16 | -36 |

17	Cc1cc(C)c(C(=O)COC(=O)C2CC3CCCC(C2)C3=O)c(C)c1 (stereo unspecified)
18	Cc1nnc(SCC(=O)NC2CCCC2)n1CCc1ccccc1
19	CN(C)c1ccc2nsnc2c1[N+](=O)[O-]
20	COc1cccc(CN2CC(C(=O)NCCc3ccc(C)s3)CCC2=O)c1 (stereo unspecified)
21	Cc1ccc(S(=O)(=O)N2CCN(CC(=O)NC3CCCc4ccccc43)CC2)c(C)c1 (stereo unspecified)
22	COc1ccc(NC(=O)Nc2nnc(C(C)C)s2)cc1
23	O=C1CN(C(=O)COC(=O)CCS(=O)(=O)c2ccccc2)c2ccccc2N1
24	CC1=CN2C(=N)/C(=C/c3ccc(C)o3)C(=O)N=C2S1

| compound no. | 17 | 18 | 19 | 20 | 21 | 22 | 23 | 24 |
| --- | --- | --- | --- | --- | --- | --- | --- | --- |
| Mtb hypoxia rep growth | 12 | 1 | . | -18 | -2 | -2 | 5 | 5 |
| Mtb hypoxia rep | -1 | 8 | . | 7 | -3 | -6 | 5 | -2 |
| RN4220 kill | 0.9 | 2.1 | . | -1.1 | -7.1 | 1.7 | 3.3 | -1.7 |
| BJeLR lethal | -13 | -7 | 0 | -7 | -9 | 2 | . | 2 |
| Sa ugtP lethal | 0 | -4 | . | 9 | -8 | -9 | 6 | 1 |
| Autofluor counter | ? | 3480 | 3598 | . | 4671 | 10929 | 3472 | 2132 |
| PrP 5UTR inh | -9 | -17 | -8 | -13 | 2 | -59 | -17 | -24 |

Compound profiles, from the list above:
Results for CN1CCC(OC(=O)c2ccccc2Cl)CC1 = Mtb hypoxia rep growth = 5; Mtb hypoxia rep = 4; RN4220 kill = 0.6; BJeLR lethal = 3; Sa ugtP lethal = 11; Autofluor counter = 2053; PrP 5UTR inh = -2
Results for Oc1ccc(-n2cccc2C=Nn2cnnc2)cc1 = Mtb hypoxia rep growth = -13; Mtb hypoxia rep = 0; RN4220 kill = 2.7; BJeLR lethal = .; Sa ugtP lethal = 2; Autofluor counter = .; PrP 5UTR inh = .
Results for ClCCN(CCCl)c1ccc(-n2cnc3c(Cl)ncnc32)cc1 = Mtb hypoxia rep growth = 11; Mtb hypoxia rep = 16; RN4220 kill = 5.4; BJeLR lethal = .; Sa ugtP lethal = 0; Autofluor counter = 3956; PrP 5UTR inh = -29

Values by screen from the entries so far:
Entries 4–13 in BJeLR lethal: -5, 6, 3, ., -1, -12, -15, -15, -5, 19

Single values from the entries so far:
In BJeLR lethal, cpd 21 shows -9
In PrP 5UTR inh, cpd 23 shows -17

More compounds
25	CCCCOC(=O)Nc1ccc(S(=O)(=O)Nc2nccs2)cc1
26	COc1ccc(C/C(C)=N/NC(=O)c2ccncc2)cc1
27	Cn1c(C(=O)N(Cc2ccccc2)Cc2cccs2)cc2sccc21
28	COc1ccc(S(=O)(=O)NCC2CCCN(C(=O)C=C(C)C)C2)cc1 (stereo unspecified)
29	Nc1c(C(=O)NC2CCCC2)c2nc3ccccc3nc2n1/N=C/c1cccnc1
30	CC(C)(C)NC(=S)NN=Cc1c(Cl)cccc1Cl
31	CC(C)Cc1ccc(CN2CCCC(NC(=O)c3ccnn3C)C2)cc1 (stereo unspecified)
32	COc1ccccc1NC(=O)C(C)OC(=O)CC1CCCCC1 (stereo unspecified)

| compound no. | 25 | 26 | 27 | 28 | 29 | 30 | 31 | 32 |
| --- | --- | --- | --- | --- | --- | --- | --- | --- |
| Mtb hypoxia rep growth | 32 | . | 5 | 3 | . | 2 | -13 | -4 |
| Mtb hypoxia rep | 13 | . | 5 | 9 | . | 4 | 3 | 2 |
| RN4220 kill | -0.2 | . | -0.8 | 5.6 | . | -3.1 | 0.1 | 3.0 |
| BJeLR lethal | -5 | -17 | -1 | 7 | 12 | . | -1 | . |
| Sa ugtP lethal | 1 | . | 39 | -1 | . | 14 | 3 | 5 |
| Autofluor counter | . | 2587 | 12399 | 4159 | 4192 | . | 8219 | 3942 |
| PrP 5UTR inh | -12 | -17 | -10 | 0 | -26 | . | -7 | -26 |

33	CCCCOC(=O)c1ccc(-c2ccc(C=NNC(=S)NCC)o2)cc1
34	C[C@H]1C=C(C(=O)NCc2nc3ccccc3[nH]2)O[C@@H](OCc2ccc(CO)cc2)C1
35	O=C(CC(C(=O)O)N1CCOCC1)Nc1ccc(Cl)cc1 (stereo unspecified)
36	CN(C)c1ccc(/C=N/NC(=O)c2cc(=O)[nH]c3ccccc23)cc1
37	O=C(CSc1nnc(NC(=O)c2c(F)cccc2F)s1)NCc1ccc(F)cc1
38	O=C(CSc1nc(C2CC2)nc2ccccc12)Nc1ccccc1N1CCOCC1
39	COC(=O)C(Cc1ccc(N(CCCl)CCCl)cc1)N=Cc1ccccc1O (stereo unspecified)
40	CC(=O)Nc1cccc(C(C)=NNC(=O)c2ccc(Cn3nc([N+](=O)[O-])c(Cl)c3C)o2)c1

| compound no. | 33 | 34 | 35 | 36 | 37 | 38 | 39 | 40 |
| --- | --- | --- | --- | --- | --- | --- | --- | --- |
| Mtb hypoxia rep growth | -2 | . | 2 | . | -3 | -1 | . | 1 |
| Mtb hypoxia rep | 5 | . | 1 | . | 8 | 4 | . | 4 |
| RN4220 kill | 5.3 | . | 2.7 | . | -1.7 | -0.7 | . | 6.2 |
| BJeLR lethal | . | 10 | 0 | -7 | -6 | -4 | 23 | . |
| Sa ugtP lethal | 9 | . | 3 | . | 10 | 10 | . | 5 |
| Autofluor counter | . | 3174 | 19713* | 5834 | ? | 4377 | 3575 | . |
| PrP 5UTR inh | . | -22 | -35 | -1 | -11 | -16 | 32 | . |

Compounds listed so far containing a nitro group on carbon (4):
4	O=[N+]([O-])c1cc(C(F)(F)F)cc([N+](=O)[O-])c1NCc1cccnc1
13	CCOc1ccc(Br)cc1C1=NN(C(C)=O)C(c2ccc([N+](=O)[O-])s2)O1 (stereo unspecified)
19	CN(C)c1ccc2nsnc2c1[N+](=O)[O-]
40	CC(=O)Nc1cccc(C(C)=NNC(=O)c2ccc(Cn3nc([N+](=O)[O-])c(Cl)c3C)o2)c1

| compound no. | 4 | 13 | 19 | 40 |
| --- | --- | --- | --- | --- |
| Mtb hypoxia rep growth | 10 | 1 | . | 1 |
| Mtb hypoxia rep | 12 | -7 | . | 4 |
| RN4220 kill | 24 | 22 | . | 6.2 |
| BJeLR lethal | -5 | 19 | 0 | . |
| Sa ugtP lethal | -2 | 30 | . | 5 |
| Autofluor counter | 1985 | 3831 | 3598 | . |
| PrP 5UTR inh | -13 | -9 | -8 | . |
